# HNF4A DNA FP: change in binding of human HNF4 alpha to DNA | P41235 | HNF4a-FITC DNA binding, fluorescence polarization, 1 h | activity change, % at 10 µM | 360,000 tested, 0.3% active; in the data active means activity change above about 30%, passing the limit was not always enough;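 further: controls were the assay level and a saturating level of protein; the project sought stronger binding though the title names inhibitors; some compounds called inactive have numbers as strong as hits; positive values seem to mean higher polarization but the record does not say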
# Target sequence (P41235 whole entry, looked up): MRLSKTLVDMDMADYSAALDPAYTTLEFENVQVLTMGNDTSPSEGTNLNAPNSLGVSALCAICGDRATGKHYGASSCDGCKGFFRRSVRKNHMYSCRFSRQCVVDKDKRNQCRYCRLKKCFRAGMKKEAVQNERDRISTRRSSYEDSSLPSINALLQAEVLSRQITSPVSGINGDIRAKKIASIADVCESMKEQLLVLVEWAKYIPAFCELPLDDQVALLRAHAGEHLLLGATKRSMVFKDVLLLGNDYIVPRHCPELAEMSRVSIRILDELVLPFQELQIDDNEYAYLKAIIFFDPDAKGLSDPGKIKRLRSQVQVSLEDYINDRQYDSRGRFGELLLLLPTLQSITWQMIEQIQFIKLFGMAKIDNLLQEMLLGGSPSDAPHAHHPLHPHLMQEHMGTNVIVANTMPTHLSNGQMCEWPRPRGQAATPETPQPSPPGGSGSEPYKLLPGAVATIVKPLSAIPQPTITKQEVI
# ALR inh: human ALR oxidase inhibition via reduced H2O2; P55789; purified ALR, DTT oxidation, H2O2 HRP-luminol luminescence; inhibition, % (test concentration not listed); 290,000 tested, 3.8% active; AID 485317;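 active means mean and each replicate at 75% or more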;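 further: stock transfer was 7.5 nL into about 7.5 µL; 0% = neutral wells and 100% = wells with inactivated enzyme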
# rRNA inh HTS: selective bacterial rRNA inhibition in E. coli; 350,000 tested, 1.6% active; E. coli WT GFP vs humanized-ribosome RFP mutants, fluorescence, 24 h; stronger effect = lower value; DMSO median 0, no signal -100; GFP signal change (wild-type ribosome), % (concentration not given with the values);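 active means significant combined selectivity score with lowered wild-type GFP, culture density cut under 30%, mutant RFP and density less affected; inactive means any of these conditions unmet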; further: one replicate is shown; some compounds called inactive have numbers as strong as hits
# Ecoli growth: inhibitors of Escherichia coli growth; OD600 absorbance (concentration not given with the values); OD600, 23 h; stronger effect = lower value; 330,000 tested, 0.21% active; AID 1053175;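 active means OD600 absorbance below the run mean of sample wells minus 3.6 SD, in any replicate, cut at about 0.56 in these data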;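 further: stock transfer was 300 nL into about 60 µL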
# UCH37 DUB inh: inhibitors of human deubiquitinating enzyme UCH37; purified proteasome/UCH37, Ub-AMC cleavage fluorescence; Q9Y5K5; 330,000 tested, 0.33% active; inhibition, % (concentration not given with the values);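 active means mean of two replicates above 20%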;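 further: 0% = compound-free wells with enzyme and 100% = wells lacking proteasome; stock transfer was 100 nL into about 20 µL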
# Target sequence (Q9Y5K5 whole entry, looked up): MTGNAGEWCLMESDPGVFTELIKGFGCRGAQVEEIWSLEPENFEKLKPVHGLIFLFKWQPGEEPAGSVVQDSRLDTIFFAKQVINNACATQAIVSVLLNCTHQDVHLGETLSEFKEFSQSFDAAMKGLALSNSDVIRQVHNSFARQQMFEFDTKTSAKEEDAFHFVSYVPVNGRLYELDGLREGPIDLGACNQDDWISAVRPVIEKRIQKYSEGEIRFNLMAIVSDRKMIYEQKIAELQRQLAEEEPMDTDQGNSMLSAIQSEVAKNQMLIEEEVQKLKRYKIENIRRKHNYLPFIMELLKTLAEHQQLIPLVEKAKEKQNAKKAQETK
#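 Material: Human UCH37 enzyme supplied as purified proteasome complex | Schedule: 30 min compound-proteasome preincubation then 25 min substrate reaction, room temperature | Detection: AMC fluorescence from Ub-AMC cleavage, excitation 355 nm, emission 460 nm | Benchmarks: Wells without proteasome as full block, compound-free enzyme plus substrate as uninhibited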
# FGF22 binding: shifts melting point of recombinant human FGF22; calls only at 9.99 µM; Q9HCT0; AID 651658; recombinant FGF22 thermal shift, SYPRO orange fluorescence; percent of sucrose octasulfate shift, DMSO zero; 340,000 tested, 1.5% active;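 active means melting point raised past a set limit in the mean and every replicate; three in four hits are not shown here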
# Target sequence (Q9HCT0 whole entry, looked up): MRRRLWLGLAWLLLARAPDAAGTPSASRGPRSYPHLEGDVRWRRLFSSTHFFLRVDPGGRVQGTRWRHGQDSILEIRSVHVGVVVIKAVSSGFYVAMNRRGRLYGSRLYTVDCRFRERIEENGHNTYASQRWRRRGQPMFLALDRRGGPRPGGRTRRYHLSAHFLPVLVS
# B2AR ag: activates human beta-2 adrenergic receptor causing internalization; response, % (test concentration not listed); 340,000 tested, 0.43% active; Am2.2-beta2AR cells, FAP receptor internalization, flow cytometry; reference of the scale not given here; P07550;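 active means response above a set limit, near 3 SD of response in nonfluorescent compounds, cut at about 42% in these data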;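 further: stock transfer was 100 nL into about 11 µL; a reference agonist was the positive control; negative values mostly stem from fluorescent compounds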
# rRNA inh HTS OD600: second read-out of rRNA inh HTS, no call of its own (marks repeat the call); OD600 change, %; measured here: OD600 growth;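 optical density of the mix in the first replicate; 0 = DMSO median and -100 = no signal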
# rRNA inh HTS RFP: second read-out of rRNA inh HTS, no call of its own (marks repeat the call); RFP signal change, %; measured here: RFP humanized mutant strains;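 first replicate; 0 = DMSO median and -100 = no signal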
# * marks the source's active call; other numbers are inactive results; i = inactive; . = not tested or not shown.
SMILES,HNF4A DNA FP,ALR inh,rRNA inh HTS,rRNA inh HTS OD600,rRNA inh HTS RFP,Ecoli growth,UCH37 DUB inh,FGF22 binding,B2AR ag
CSCCCNC(=O)c1ccc(OC2CCN(C(=O)c3cccnc3)CC2)cc1,-1.8,.,5.2,0.2,-2.1,0.681,-0.2,i,-4.0
COc1ccc(Cl)cc1-c1cc(C(=O)NC2CCCCC2)[nH]n1,-1.5,.,-14.1,-53.4,10.9,.,.,i,.
CC(Oc1ccc(C(C)(C)C)cc1)C(=O)NCC(c1ccco1)N1CCCC1 (stereo not drawn),1.7,-0.7,.,.,.,0.681,-0.8,i,-11.3
CC(C)(C)NS(=O)(=O)c1ccc(CCC(=O)O)cc1,-1.6,-1.5,.,.,.,0.745,1.2,.,3.3
COc1cccc(N(C(=O)c2sc(C)nc2C)C(C(=O)NCC2CCCO2)c2ccccc2)c1 (stereo not drawn),-2.7,.,-4.1,-0.7,0.8,0.678,3.2,i,-6.4
CCn1c(SCc2ccc(C(=O)O)cc2)nnc1-c1ccc(Cl)cc1,3.4,.,-3.0,1.0,-2.7,0.696,1.0,i,1.9
CC(=O)Nc1ccc(S(=O)(=O)N2CCC(NC(=O)C(Cc3cccc(F)c3)NC(C)=O)CC2)cc1 (stereo not drawn),-0.8,-12.7,-55.6,-79.8,-18.0,0.664,-1.0,i,-7.3
CNC(=O)C1CCC(=O)N1Cc1ccccc1Cl (stereo not drawn),-0.4,-17.6,.,.,.,0.674,0.7,.,1.6
CCOc1ccc(C(=O)OC(C)CN2CCN(C)CC2)cc1 (stereo not drawn),-3.9,.,10.4,9.5,-1.4,0.684,1.4,i,-1.7
CCOc1ccc(NC(=O)C(=O)NCc2ccncc2)cc1,-0.3,-0.8,8.2,6.1,0.8,0.642,6.9,i,4.2
CCN(CC)C(=O)CSc1nnc(CCN)o1,1.0,-1.2,.,.,.,0.694,-0.8,.,3.7
CN(C)CCCNS(=O)(=O)c1ccc(N2CCN(Cc3ccc4c(c3)OCO4)CC2)c([N+](=O)[O-])c1,1.3,-0.7,-5.4,2.9,-1.3,0.691,3.0,i,9.6
CC(C)C(NC(=O)OCc1ccccc1)C(=O)NC1CCCCC1 (stereo not drawn),1.5,0.7,.,.,.,0.654,2.7,.,15.3
CCOC(=O)C1CCN(S(=O)(=O)c2ccc3c4c2CC(=O)N4CC(C)S3)CC1 (stereo not drawn),-1.4,.,5.5,1.4,0.6,0.74,6.4,i,12.1
COc1ccc2oc(=O)c(C(=O)N3CCN(C(=O)c4ccccc4)CC3)cc2c1,0.8,-1.0,15.5,11.9,1.4,0.654,-304.2,i,0.1
CCOc1ccc(S(=O)(=O)N2CCC(C(=O)NCc3ccco3)CC2)cc1C,-0.6,1.2,2.5,0.6,-0.7,0.663,6.8,i,-15.2
CCOc1nnc(C)c2c(C)n(-c3ccc(Cl)cc3)nc12,4.3,2.0,.,.,.,0.677,1.6,.,-7.9
COc1ccc(NS(=O)(=O)c2ccc(C(=O)N3CCN(c4ccc(F)cc4)CC3)cc2)cc1,-0.8,3.2,.,.,.,0.694,3.5,i,10.4
O=C(N/N=C/c1sc(=O)[nH]c1-[n+]1ccccc1)c1ccccc1[O-],-21.9,4.0,11.5,4.8,-2.8,.,.,i,-1.4
COc1cccc(N2CCN(C(=O)Cn3c(=O)oc4ccccc43)CC2)c1,1.1,17.0,3.9,3.1,-0.6,0.623,0.6,i,-8.3
CN(C)/C=C1/C=C(c2ccccc2)OC1=O,-5.4,98.7*,7.2,12.5,3.5,0.642,16.9,i,2.1
NC(=O)C1CCN(CC(=O)Nc2ccc3c(c2)OCCO3)CC1,1.6,.,.,.,.,0.712,1.5,i,-5.8
CCCCc1nc2cc(C(=O)NCc3cc(C)n(C)n3)ccc2o1,-2.4,7.0,10.6,-0.4,0.3,0.661,1.2,i,-7.8
COc1cccc2[nH]c3c(N4CCC(C(N)=O)CC4)ncnc3c12,-4.7,.,.,.,.,0.697,i,.,-4.5
Cc1cc(=O)[nH]c(SCC(=O)Nc2nc(-c3ccccc3)cs2)n1,1.2,98.8*,.,.,.,0.641,.,.,10.5

# Single values from the results shown.
# CC(C)C(NC(=O)OCc1ccccc1)C(=O)NC1CCCCC1 (stereo not drawn) in B2AR ag shows 15.3
# Cc1cc(=O)[nH]c(SCC(=O)Nc2nc(-c3ccccc3)cs2)n1 in HNF4A DNA FP shows 1.2

# (further entries)
SMILES,HNF4A DNA FP,ALR inh,rRNA inh HTS,rRNA inh HTS OD600,rRNA inh HTS RFP,Ecoli growth,UCH37 DUB inh,FGF22 binding,B2AR ag
O=C(CNCCN1CCOCC1)Nc1ccccc1Sc1ccccc1,-2.4,-0.7,0.4,0.4,0.6,0.694,4.2,i,-0.9
COCCN1Cc2cccc(C(=O)Nc3cccc(OC)c3)c2C1=O,2.4,-15.5,.,.,.,0.696,1.6,.,-5.0
CCOc1cc(C)c(-c2onc(C(F)(F)F)c2-c2csc(C)n2)c(O)c1,3.6,0.6,-48.2,-71.2,-22.2,0.72,2.9,i,-0.4
CCC(Oc1ccccc1)C(=O)Nc1nnc(S(=O)(=O)N2CCCCC2)s1 (stereo not drawn),1.8,-1.8,-12.6,-29.7,-9.1,0.694,0.4,i,10.6
O=C(CSc1nnnn1C1CCCCC1)NNC(=O)c1ccco1,-2.8,-0.6,24.4,13.3,1.4,0.663,4.1,i,-11.9
CCC(C)C(NC(=O)C1CCC(C)CC1)C(=O)NCc1ccco1 (stereo not drawn),-39.0,-18.8,2.5,9.9,3.4,0.631,1.2,i,5.9
CCOC(=O)C1=CCC(c2cc3ccccc3[nH]2)NC1 (stereo not drawn),0.7,.,7.0,8.4,4.9,.,.,i,.
CSc1ccccc1NC(=O)C1CCCN(S(C)(=O)=O)C1 (stereo not drawn),-1.1,.,13.5,11.8,0.8,0.664,2.0,i,4.8
C/C(=N\NC(=O)Cn1nnc2ccccc21)c1ccco1,-1.5,0.9,4.7,3.0,-2.1,.,.,.,-7.7
CCC1(C)Cc2ccccc2/C(=C/C(=O)N2CCCCC2)N1 (stereo not drawn),-2.5,-1.6,.,.,.,.,-0.9,.,5.2
O=C(CN1CCC(n2nnc3cc(F)ccc32)CC1)N1CCc2ccccc2C1,1.8,-4.8,-23.1*,-0.4*,0.4*,0.695,0.6,i,-7.0
COc1ccccc1CN1CC(C(=O)NCc2cnn(C)c2)CCC1=O (stereo not drawn),-0.5,2.4,5.9,15.5,0.6,0.68,2.6,i,2.3
CCOc1ccc(NC(=S)N2CCCN(Cc3cccc(Cl)c3)C2)cc1,-1.5,-9.7,11.4,-1.9,-0.5,0.697,1.8,i,-9.7
Cc1ccccc1S(=O)(=O)Nc1nc2ccccc2nc1NCCO,-3.8,1.8,6.6,4.2,-2.8,0.673,-6.7,.,4.3
O=C(OC1Cn2c(=O)ccc(=O)n2C1)c1ccc([N+](=O)[O-])cc1,-0.2,-19.4,.,.,.,0.737,1.5,i,-0.3
CC(C)NC(=O)COC(=O)c1cc(F)c(F)cc1Cl,-0.4,-1.3,.,.,.,0.708,0.3,.,0.8
O=S(=O)(c1cc(Cl)ccc1Br)N1CCOCC1,0.2,-2.0,.,.,.,0.666,4.3,.,-4.1
CC(C)(C)C(=O)Nc1ccc(C(=O)COC(=O)C2=COCCO2)cc1,-1.8,.,5.8,9.4,-2.2,0.689,3.8,i,-0.6
CCCc1nc2ccccc2c(=O)n1NC(=O)c1c(O)c2ccccc2n(C)c1=O,3.3,1.3,4.6,-3.8,1.7,0.647,3.6,i,-1.8
CCOc1ccc(NC(=O)C2CC(=O)N(c3ccccc3F)C2)cc1 (stereo not drawn),-0.2,-4.1,0.8,0.8,1.4,0.625,1.9,i,1.8
O=C(Nc1ccccc1)c1ccc(NCCc2ccccc2)c([N+](=O)[O-])c1,152.4,2.1,.,.,.,0.726,2.8,i,12.5
O=C(c1cc(Br)ccc1Cl)N1CCN(c2ccccn2)CC1,-3.0,4.9,4.4,-4.2,0.3,0.682,2.9,i,7.0
CCOC(=O)c1c(/N=C/c2ccc(C)cc2O)sc2c1CCC2,2.0,15.3,16.2,8.6,0.8,.,.,i,0.4
O=C(CNC(=O)c1ccco1)NNC(=O)c1cccc(Cl)c1,4.2,.,10.6,10.2,-0.1,0.683,3.6,i,5.6
O=C(C1CCN(S(=O)(=O)c2cnc[nH]2)CC1)N1CCN(c2ncccn2)CC1,-6.0,1.1,.,.,.,0.713,-0.7,.,0.2

# (list continues)
SMILES,HNF4A DNA FP,ALR inh,rRNA inh HTS,rRNA inh HTS OD600,rRNA inh HTS RFP,Ecoli growth,UCH37 DUB inh,FGF22 binding,B2AR ag
CC12CCC(=O)N1C(C(=O)NCCc1ccc(S(N)(=O)=O)cc1)CS2 (stereo not drawn),0.1,-5.9,2.1,6.3,1.7,0.674,-0.8,i,0.4
COC(=O)c1cn(-c2ccccc2)nc1C(=O)OC,-0.7,-9.5,.,.,.,0.725,4.3,.,2.8
CC(C)NC(=O)CSc1nc2ccccc2n1-c1ccccc1,1.6,-7.3,.,.,.,0.713,4.6,.,-21.5
O=C1N[C@@H](Cc2ccccc2)C(=O)N2CCCC12 (stereo partly drawn),-1.9,.,10.1,2.6,1.5,0.725,-1.6,i,-2.2
CCC(=O)Nc1ccc(NC(=O)CCc2ccccc2)cn1,2.4,-1.8,-3.5,-1.1,-3.4,0.711,2.6,i,10.4
Cc1noc(NS(=O)(=O)c2ccc(NC(=O)c3nn(-c4ccc(F)cc4)ccc3=O)cc2)c1C,0.6,6.2,4.5,18.4,-1.4,0.663,12.0,i,9.8
O/N=C1/CC/C(=N\O)c2nn(-c3ccccc3)nc21,1.5,45.9,.,.,.,.,.,.,-3.2
CC12CCC(C(=O)N3CCCCC3)(CC1=O)C2(C)C (stereo not drawn),-0.5,-10.3,.,.,.,0.7,0.5,.,4.1
CCc1cc2c3c(c(=O)oc2cc1OCC(=O)OC)CCCC3,-0.8,.,-15.5,-10.3,0.1,0.699,-45.7,i,-7.7
COc1cccc(NC(=O)CSc2cccc[n+]2[O-])c1,1.9,-14.1,2.9,2.8,-1.8,0.648,1.8,i,7.3
COc1cc(O)cc2occ(-c3ccc(O)cc3)c(=O)c12,0.7,98.0*,-7.5,-6.3,-10.8,0.736,-4.5,i,-4.0
COc1ccc(CNC(=O)Nc2ccc(C)cc2)cc1,-3.3,3.3,.,.,.,0.703,2.0,.,3.8
Nc1nc(SCC(=O)NCc2ccc3c(c2)OCO3)n[nH]1,-0.4,1.1,0.6,10.9,9.4,0.649,0.8,i,-2.1
COc1ccc(F)cc1CN1CCN(C(=O)CCC(=O)Nc2nnc(C(C)C)s2)CC1,0.5,-8.1,4.2,-4.2,1.3,0.712,-1.0,.,7.3
COCCNC(=O)c1ccc(CN2CCc3ccccc3C2)cc1,1.9,-0.6,5.3,9.3,1.2,0.684,5.0,i,-0.2
COCCN(CC(=O)Nc1cccc(C)c1C)C(=O)c1oc2ccccc2c1C,-4.5,0.1,-4.0,-3.5,-0.9,0.685,0.9,i,0.9
COc1ccccc1C(=O)NC(CCSC)C(=O)N1CCN(C(C)=O)CC1 (stereo not drawn),-0.5,1.9,5.4,-2.4,-2.9,0.659,3.9,i,-0.9
COc1cccc(C(=O)Nc2ccc(N(C)C)cc2)c1OC,0.3,.,.,.,.,0.705,1.2,.,-0.5
CCOC(=O)c1ccc(-n2cc(C(=O)c3cccnc3)nn2)cc1,4.6,-2.9,15.0,19.4,-0.2,0.695,6.3,i,4.3
COc1cc(Cl)c(C)cc1NC(=O)CCCN1C(=O)CCC1=O,0.7,-1.6,.,.,.,0.672,3.9,.,1.1
Cc1ccccc1S(=O)(=O)NCC1CCCO1 (stereo not drawn),-4.1,-13.8,5.2,5.9,-2.3,0.655,0.9,i,5.0

# Source: PubChem BioAssay (several laboratories)

# A portion of the library; the hit share may differ from the screen's.
